# High-throughput results as filed in PubChem BioAssay.
# CtBP-E1A inh: qHTS Assay for Inhibitors of the CtBP/E1A Interaction; CtBP / adenovirus E1A interaction (AlphaScreen); AlphaScreen GST-E1A/His-CtBP binding, 1536-well; hits give low values; control for the full effect not named in the record; activity change, % (test concentration not listed); actives 0.49% (n = 340,000); AID 651724, 2012; in the data active means activity change below about -65%; inconclusive means about -30% to -65%; inactive means above about -30%; also: % is scaled to controls: 0 for no effect and ±100 for the full control effect; compound concentration not given in the record
#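 Homogeneous bead-based format: GST-tagged E1A captured on glutathione donor beads, His-tagged CtBP on nickel acceptor beads; compounds precede bead addition by 2 h at 37 °C.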
# Six1-Eya2 inh: qHTS Assay for Inhibitors of the Six1/Eya2 Interaction | actives 0.56% (n = 360,000) | Homeobox protein SIX1 (Homo sapiens) + Protein phosphatase EYA2 (Homo sapiens), … | activity change, % (test concentration not listed) | AlphaScreen GST-Six1/His-Eya2 binding, biochemical; hits give low values; control for the full effect not named in the record; in the data active = activity change below about -65%; inconclusive = about -30% to -65%; inactive = above about -30%; also: % is scaled to controls: 0 for no effect and ±100 for the full control effect; compound concentration not given in the record
#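 Homogeneous AlphaScreen proximity assay pairing GST-Six1 with His-tagged Eya2 (added as 5X mix: 250 nM and 500 nM) in 50 mM Tris pH 8.0, 300 mM NaCl, 1 mM TCEP. Glutathione donor and nickel acceptor beads; 1 h, 37 °C, dark.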
# TRPML1 ag: qHTS for Agonists of the Human Mucolipin Transient Receptor Potential 1 (TRPML1). activation, % (test concentration not listed). TRPML1-expressing cells, Ca2+ dye fluorescence, FDSS; host cell line not named in the record; reference of the full effect not given here. Mucolipin-1 (Homo sapiens), Q9GZU1. actives 0.12% (n = 410,000); in the data active = activation above about 50%; inconclusive = about 30% to 50%; inactive = below about 30%; also: 0% is about no effect; the text of the record puts the active cut at 80%
# Target sequence (Q9GZU1 whole entry, looked up): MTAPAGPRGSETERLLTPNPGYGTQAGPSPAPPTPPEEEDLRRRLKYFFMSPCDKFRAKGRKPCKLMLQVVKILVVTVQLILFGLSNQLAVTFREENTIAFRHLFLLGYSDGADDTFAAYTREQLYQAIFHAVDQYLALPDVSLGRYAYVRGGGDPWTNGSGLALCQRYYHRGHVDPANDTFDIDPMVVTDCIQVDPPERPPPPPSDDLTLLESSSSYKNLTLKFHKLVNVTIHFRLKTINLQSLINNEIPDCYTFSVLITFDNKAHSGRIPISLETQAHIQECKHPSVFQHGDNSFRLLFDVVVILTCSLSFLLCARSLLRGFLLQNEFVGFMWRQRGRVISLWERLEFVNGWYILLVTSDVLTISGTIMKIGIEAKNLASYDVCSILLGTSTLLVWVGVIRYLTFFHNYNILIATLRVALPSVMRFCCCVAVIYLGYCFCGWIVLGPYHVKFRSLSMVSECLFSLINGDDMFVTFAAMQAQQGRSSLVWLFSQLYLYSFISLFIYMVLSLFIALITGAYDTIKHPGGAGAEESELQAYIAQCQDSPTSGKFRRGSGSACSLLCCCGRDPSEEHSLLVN
#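 Tetracycline-induced TRPML1-DL cells are seeded and incubated overnight before loading with a no-wash Ca2+ dye and quencher. Agonist activity is taken from the 110 s fluorescence read following compound pin-transfer on an FDSS, before EC80 54-4 challenge.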
# D2 ag: Beta-Arrestin HTS for Positive Allosteric Modulators of the Human D2 Dopamine Receptor: Agonists; actives 0.084% (n = 360,000); activation, % (test concentration not listed); AID 624465, 2012; DiscoveRx PathHunter D2 beta-arrestin, luminescence, 90 min; 100% = 57 uM dopamine signal; D(2) dopamine receptor (Homo sapiens), P14416; in the data active = activation above about 40%; inconclusive = about 15% to 40%; inactive = below about 15%; also: compound concentration not given in the record; the text of the record calls up to 30% inactive
# Target sequence (P14416 whole entry, looked up): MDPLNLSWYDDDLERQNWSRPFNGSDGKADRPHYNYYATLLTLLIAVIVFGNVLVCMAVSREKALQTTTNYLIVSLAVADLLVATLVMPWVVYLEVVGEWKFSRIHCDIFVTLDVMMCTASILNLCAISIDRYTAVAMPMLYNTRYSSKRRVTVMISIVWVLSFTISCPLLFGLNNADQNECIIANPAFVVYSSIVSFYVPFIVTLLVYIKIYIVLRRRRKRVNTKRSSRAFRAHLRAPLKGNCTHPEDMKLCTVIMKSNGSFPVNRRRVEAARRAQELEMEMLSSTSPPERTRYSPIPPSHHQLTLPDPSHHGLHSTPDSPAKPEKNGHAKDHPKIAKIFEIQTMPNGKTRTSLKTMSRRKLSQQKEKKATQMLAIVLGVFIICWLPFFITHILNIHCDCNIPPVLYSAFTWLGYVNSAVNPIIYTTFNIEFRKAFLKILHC
#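 DiscoveRx PathHunter D2 beta-arrestin cells (2,100/well) attached overnight, then compound-stimulated 90 min at 37 C in HBSS/10 mM HEPES/0.1% Tween-20 buffer; beta-galactosidase complementation read by luminescence after 1 h at ambient temperature. Dopamine 57 uM final (EC100) as control.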
# D2 PAM: Beta-Arrestin HTS for Positive Allosteric Modulators of the Human D2 Dopamine Receptor: Potentiators. D(2) dopamine receptor (Homo sapiens), P14416. potentiation, % (test concentration not listed). actives 0.23% (n = 360,000). DiscoveRx D2 beta-arrestin cells, luminescence, 90 min; 100% = 57 uM dopamine signal. AID 624464, 2012; active = potentiation of 50% or more; inconclusive = 30% to 50%; inactive = 30% or less;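 also: compound concentration not given in the record; tested on top of an EC20 dose of dopamine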
#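 PathHunter D2 cells, attached overnight at 37 deg C, received compound in DMSO plus dopamine at EC20 (50 nM final) for 90 min at 37 deg C. Beta-arrestin recruitment was read as luminescence after 1 h with detection reagent at ambient temperature.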
# PINK1 modulator: A Quantitative High throughput Screen to Identify Chemical Modulators of PINK1 Expression | PINK1 immunofluorescence, high-content cytometry, 24 h | Potency, µM (top dose mostly 76.6 µM), inactives show at the top dose activation (PINK1 increase), actives largely listed as activators | actives 0.2% (n = 410,000) | AID 624263, 2012; active = well fitted activation curve with a large enough effect; inconclusive = small, poorly fitted or top-dose-only effect; inactive = flat fitted curve, though single readings scatter; cell line not stated here;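 also: potency is read from the fitted curve at half-maximal effect; % of control where 0% means no effect; nearly all actives have a fitted effect of over 65% in size; a mitochondrial uncoupler was the plate control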
#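 Stable cell line treated 24 h with compounds at 5 concentrations (CCCP controls), then fixed and immunostained for PINK1 plus nuclear and cell stains; PINK1 immunofluorescence quantified by laser-scanning microplate cytometry.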
# An asterisk follows results filed as active; u = inconclusive; x = not tested or not shown; & = joins results of further samples; [ ] = remark or other dose.
SMILES,CtBP-E1A inh,Six1-Eya2 inh,TRPML1 ag,D2 ag,D2 PAM,PINK1 modulator
CCS(=O)(=O)n1nc(-c2ccccc2)nc1SC,4.9,3.6,0.3,0.5,-2.3,-1.6%[38.3 µM]
COc1ccc(/C=C/C(=O)OCC(=O)c2c(N)n(C)c(=O)n(C)c2=O)cc1,-20.0,-9.7,0.2,-3.1,-22.5,-1.4%
CC(C)c1nc2ccc(NC(=O)C34CC5CC(CC(C5)C3)C4)cc2[nH]1,10.8,-0.5,0.4,-1.8,-16.6,7.7%[38.3 µM]
Cc1cc(C)c(NC(=O)CNC(=O)c2cc(C3CC3)nc3c2cnn3C(C)C)c(C)c1,-6.3,1.9,0.6,-3.1,-25.4,1.5%
COc1ccc(OC)c(NC2=NC3(CCCCC3)N=C(N)N2)c1,-73.2*,-83.7*,-0.6,-0.4,-28.1,2.3%
C=C(C)c1cccc(C(C)(C)NC(=O)N2CCN(c3ccccc3)CC2)c1,x,-0.9,-1.3,-5.9,-16.6,10.5%
CCOC(=O)Cn1nc(CC)c2ccccc2c1=O,-0.9,2.4,-0.1,-1.5,-13.5,3.5%[38.3 µM]
Cn1cccc1C(=O)NCC1CCCCC1,-13.5,-8.7,-0.5,0.2,-7.3,0.2%
Cc1ccc(C(=O)COc2ncnc3cc(Cl)ccc23)cc1,x,10.7,-1.1,-4.0,-11.1,6.5%
O=c1[nH]c(C2CCN(S(=O)(=O)c3ccccc3C(F)(F)F)CC2)nc2c1nnn2Cc1cccc(F)c1,-19.1,-20.9,2.6,5.5,-0.6,2.1%

# Compound profiles (already shown). Screens in order: CtBP-E1A inh | Six1-Eya2 inh | TRPML1 ag | D2 ag | D2 PAM | PINK1 modulator
# CCOC(=O)Cn1nc(CC)c2ccccc2c1=O reads -0.9 | 2.4 | -0.1 | -1.5 | -13.5 | 3.5%[38.3 µM]
# COc1ccc(/C=C/C(=O)OCC(=O)c2c(N)n(C)c(=O)n(C)c2=O)cc1 reads -20.0 | -9.7 | 0.2 | -3.1 | -22.5 | -1.4%

# Grouped by structure: the entries above with four or more nitrogen atoms (3)
SMILES,CtBP-E1A inh,Six1-Eya2 inh,TRPML1 ag,D2 ag,D2 PAM,PINK1 modulator
Cc1cc(C)c(NC(=O)CNC(=O)c2cc(C3CC3)nc3c2cnn3C(C)C)c(C)c1,-6.3,1.9,0.6,-3.1,-25.4,1.5%
COc1ccc(OC)c(NC2=NC3(CCCCC3)N=C(N)N2)c1,-73.2*,-83.7*,-0.6,-0.4,-28.1,2.3%
O=c1[nH]c(C2CCN(S(=O)(=O)c3ccccc3C(F)(F)F)CC2)nc2c1nnn2Cc1cccc(F)c1,-19.1,-20.9,2.6,5.5,-0.6,2.1%

# The list continues:
SMILES,CtBP-E1A inh,Six1-Eya2 inh,TRPML1 ag,D2 ag,D2 PAM,PINK1 modulator
NC(=O)C[n+]1cccc(C(N)=O)c1,1.0,4.7,-0.1,-2.9,-8.2,11.5%
O=C(/C=C/Nc1ccc(S(=O)(=O)Nc2cnc3ccccc3n2)cc1)c1ccccc1,-0.5,-1.4,0.9,-0.4,-0.1,2.5%
COc1cc(-c2nc(S(=O)(=O)c3ccc(Cl)cc3)c(N3CCOCC3)o2)cc(OC)c1OC,1.8,2.4,0.1,-2.7,-13.8,11.1%[38.3 µM]
CCCn1nc2cc(C(=O)NCCCCc3ccccc3)ccc2c1OCC,3.0,0.3,-0.8,1.0,-5.0,2.9%
Clc1cccc(-c2sc(Nc3ccccc3)n[n+]2-c2ccccc2)c1Cl,-4.9,-12.4,0.0,-4.7,-9.0,0.6%
COc1cc(C(=O)N/N=C/c2cc([N+](=O)[O-])cs2)cc(OC)c1OC,-71.8*,u,-0.3,0.6,-30.2,7.3%
COc1ccc2oc(=O)c(C(=O)N3CCN(c4ccccc4C)CC3)cc2c1,-0.9,15.2,0.0,-1.3,12.3,8.4%[38.3 µM]
COc1cc(CN(C(=O)c2ccco2)c2ccc(C)cc2)ccc1O,-6.9,-6.7,2.9,-6.4,-6.9,-0.8%[38.3 µM]
CCOC(CNC(=O)c1ccc(N2CCc3ccccc32)c([N+](=O)[O-])c1)OCC,4.4,u,1.6,0.7,-18.8,13.9%
COc1ccc(NC(=O)c2cccc(N3C(=O)C4C5C=CC(C5)C4C3=O)c2)cc1Cl (stereo unspecified),-1.4,1.7,-0.4,-3.7,-5.1,2.0%
COc1c(Cl)cc(Cl)cc1CNCc1ccccc1,20.0,34.9,5.3,-0.3,-7.2,1.9%
CCCCC(=O)Nc1cccc(NC(=S)NC(=O)Cc2ccccc2)c1,8.4,4.3,0.3,-2.8,-6.2,2.8%
NC(=O)C1CCN(C(=O)c2ccc(NS(=O)(=O)c3ccc(F)cc3)cc2)CC1,6.3,1.2,-0.1,8.9,-2.7,0.5%
CSc1nsc(/C=C/Nc2ccc(Cl)cc2)c1C#N,7.5,-0.9,0.0,1.6,12.3,16.9%
COc1ccc(S(=O)(=O)Cc2ccc(C(=O)N3CCN(c4cc(C)ccc4C)CC3)o2)cc1,-5.1,-5.3,0.1&1.3,6.3,-0.7,2.3%&1.1%
CC(=O)NC(CC(=O)OCC(=O)c1cc(C)ccc1C)c1ccccc1 (stereo unspecified),0.8,4.3,0.1,9.1,-3.5,-0.3%
O=C1/C(=C/c2ccc(F)cc2)CCC1C1CCCC1 (stereo unspecified),-22.5,1.3,-1.8,-3.7,-6.5,8.3%
CCCCN1C(=O)/C(=C(/C#N)C(=O)N2CCCC2)c2ccccc21,x,5.2,-0.6,-6.2,-15.0,-0.6%
COc1ccc(C2C(C(=O)N3CCOCC3)c3ccccc3C(=O)N2c2ccc(OC)cc2)cc1 (stereo unspecified),2.8,4.9,0.0,-2.4,-2.8,0.3%
COc1ccccc1CC(=O)N1CCCc2cc(C)ccc21,x,0.6,-0.1,-1.1,-0.6,1.4%
CCC1=C2CC[C@H]3C(=O)N(CC)C(=O)[C@H]3[C@H]2[C@@]2(Cc3ccccc3)C(=O)N(Cc3ccccc3)C(=O)N2C1=O,0.8,-2.9,0.3,1.0,-4.1,-0.2%
Oc1c(CN2CCN(c3ccccn3)CC2)cc(Cl)c2cccnc12,-96.8*,-90.2*,0.5,-16.1,-62.8,-1.0%
O=C(NNc1cccc(Cl)n1)c1c(Cl)cccc1Cl,-10.0,1.4,-0.4,1.5,-4.4,x
COCc1cc(C)nc(NC2CC(C)(C)NC(C)(C)C2)c1C#N,0.2,-8.6,1.4,-0.6,-6.2,2.4%
CCc1nnc(NS(=O)(=O)c2ccc(NC(=O)c3ccc(Br)cc3)cc2)s1,3.5,-6.8,-0.2,1.3,-1.0,0.6%
Cc1ccc(S(=O)(=O)CCC(=O)OCC(=O)NC(=O)c2ccccc2)cc1,-1.8,3.5,2.4,-2.0,-11.2,0.5%
CC(=O)C1=C(C)NC(SCC(=O)c2ccc(Cl)c(Cl)c2)=C(C#N)C1c1ccco1 (stereo unspecified),9.5,-0.8,1.5,0.2,-18.1,x
O=C(CN1CCN(S(=O)(=O)c2ccc(Br)cc2)CC1)N/N=C/c1cccs1,-4.1,1.6,0.6,-0.9,-29.5,-2.2%
O=C(c1cc(F)ccc1F)C1CCCN(C(=O)c2cccs2)C1 (stereo unspecified),5.6,0.6,-0.7,0.3,-5.5,1.3%
CCOC(=O)c1c(C)c(C(=O)NCc2cccs2)c(C)n1CC,2.9,-2.2,0.9,-0.2,-5.0,0.6%[38.3 µM]
CN(CCc1ccccn1)C(=O)CCC1CCCN(C(=O)c2cccc(N(C)C)c2)C1 (stereo unspecified),2.8,1.2,-0.2,-4.4,-9.3,1.3%
COc1ccc(CC2(CO)CCN(S(=O)(=O)c3sccc3C)CC2)cc1,5.8,0.0,-1.5,1.3,-0.7,0.3%
CN(C)CCCN(C(=O)/C=C/c1cccs1)c1nc2c(F)cccc2s1,-16.9,17.2,5.0,0.6,-11.3,-4.1%
COC(=O)C(Cc1c[nH]c2ccccc12)NC(=O)c1cc(-c2ccc(OC)c(OC)c2)oc1C (stereo unspecified),-2.3,u,1.0,1.4,-7.2,-2.2%
CC1(C(=O)NS(=O)(=O)c2ccccc2Cl)CCN1C(=O)CC1CCCCC1 (stereo unspecified),7.4,10.7,-0.3,2.2,-0.2,1.5%
CC1=C(C)CC(C(=O)NCc2ccc3c(c2)OCO3)C(C(=O)O)C1 (stereo unspecified),3.3,2.9,0.8,-0.1,-0.2,1.8%[38.3 µM]
Cc1cc2nc(-c3ccc(SCC(=O)Nc4nccs4)nc3)[nH]c2cc1C,-2.6,-0.3,2.1,2.9,23.4,-2.5%
Cc1ccc(/C=N/NC(=O)c2cc3c(ccc4ccccc43)o2)cc1[N+](=O)[O-],0.0,14.2,0.6,-1.7,-11.2,8.9%
COc1cc2c(cc1OC)C(c1ccccc1)N(C(=O)CSCC(=O)O)CC2 (stereo unspecified),-4.4,2.7,1.5,2.4,-17.5,-1.0%
c1cc(-c2ccc3[nH]ccc3c2)n2ccnc2c1,12.8,16.2,-0.1,-3.8,-14.2,4.5%
COc1ccc(S(=O)(=O)Nc2nc3ccccc3nc2NCC2CCCO2)cc1 (stereo unspecified),5.9,4.0,-1.0,-1.0,-6.7,-0.8%
O=C(NC1CCCC1)c1cc(-c2ccc(Cl)cc2)on1,9.2,5.1,-0.3,6.1,3.1,2.9%
COc1ccc(-n2cc(CN3CCC(OC)CC3)c(-c3cccc(F)c3)n2)cc1,4.4,-1.3,-0.5,-7.1,-25.8,2.5%
COCC(=O)N(C)[C@H]1C[C@H]2c3[nH]c4ccccc4c3CCN2C(=O)[C@H]1[C@H](C)O,5.2,1.0,0.0,-8.8,2.5,1.1%
COc1ccc(NC(=O)CSc2ccc(F)cc2)cc1S(=O)(=O)N1CCCCC1,0.0,20.2,0.9,0.1,-11.4,3.2%
CCOCCCNC(=O)c1ccc2c(=O)n(Cc3ccc4c(c3)OCO4)c(=S)[nH]c2c1,3.1,1.3,-0.2,2.8,2.5,2.6%
C=CCn1c(SCC(=O)Nc2ccc3c(c2)OCO3)nnc1-c1cc(Br)ccc1O,-92.2*,-84.6*,-1.0,-1.3,-9.2,-4.0%
CC(NCCN(C)C)C(=O)C12CC3CC(CC(C3)C1)C2 (stereo unspecified),x,5.7,2.3,1.0,0.2,-0.2%
Cc1ccc(NC(=O)c2ccc(COc3ccccc3)o2)nc1,3.7,4.3,1.7,-1.6,8.4,1.5%
OCCC1CN(CCCc2ccccc2)CCN1Cc1ccc(F)cc1 (stereo unspecified),-1.1,4.4,0.9,-1.7,-31.9,2.4%
Cc1ccc(NC(=O)CNC(=O)c2ccco2)cc1Cl,12.1,20.0,0.2,-1.3,-7.0,-0.7%
CCOC(=O)c1[nH]c2ccccc2c1NC(=S)Nc1cccc(C)c1,-15.5,-2.3,-0.3,8.5,8.7,0.3%
